# High-throughput results deposited in PubChem BioAssay by Broad Institute.
# Vaccinia inh: Vaccinia orthopox stage-specific inhibition. Vaccinia-infected cells, mCherry/Venus stage reporter fluorescence; stronger effect = lower value; some inactives read as strong as hits. activity change (mCherry), % (no concentration beside the values). 89,000 tested, 0.01% active. AID 1053133;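 active = mCherry past -33% and 40 or more points under the early reporter, replicates agreeing; inconclusive = past -33% without that gap or agreement; tested in A549 cells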;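 note: scaled between vehicle wells and reference inhibitor wells; 23 nL library stock went into each well; one replicate is shown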
# Vaccinia inh Venus: further read-out of Vaccinia inh, marked with its call; activity change (Venus), %; measured here: Venus reporter, other viral stage;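 negative = less Venus signal; first of two replicates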
# Active calls of the source: *; ? = inconclusive; · = no result given; & = joins results of further samples. Some of the compounds tested, so the mix of outcomes need not match the whole.
SMILES,Vaccinia inh,Vaccinia inh Venus
CC(C)NC(=O)N1[C@H](C#N)[C@@H](c2ccc(C#CC3CCCCC3)cc2)[C@H]1CO,-11.2,-18.0
CN1C(=O)c2cc(NC(=O)Cc3cccs3)ccc2OC[C@@H]2O[C@H](CC(=O)N[C@@H]3CCN(Cc4ccccc4)C3)CC[C@H]21,-7.1,-0.5
C[C@H]1CN([C@@H](C)CO)C(=O)c2cc(NC(=O)C3CCCCC3)ccc2O[C@@H]1CN(C)Cc1ccc(Cl)c(Cl)c1,0.7,1.5
COc1ccc(S(=O)(=O)N(C)C[C@H]2OCCCC[C@H](C)Oc3ccc(NS(=O)(=O)c4cccs4)cc3C(=O)N([C@@H](C)CO)C[C@@H]2C)cc1,?,·
CCNC(=O)[C@H]1[C@H](CO)[C@H]2Cn3c(ccc(-c4cccc(F)c4)c3=O)[C@H]2N1CC1CCOCC1,7.0,-1.4
COc1ccc2c3c(n(C)c2c1)[C@H](CO)N(C(=O)CN1CCOCC1)CC31CN(C(C)=O)C1,18.3,12.4
C/C=C/c1ccc2c(c1)O[C@H](CN(C)S(=O)(=O)c1ccccc1OC)[C@@H](C)CN([C@H](C)CO)S2(=O)=O,?,·
CC(C)(C)[S@](=O)N1Cc2cc(C(=O)N3CCCCC3)nc(-c3cccc(Br)c3)c2[C@@H]1CCO,13.9,14.6
CCNC(=O)[C@@H]1[C@@H](CO)[C@@H]2Cn3c(ccc(-c4ccccc4)c3=O)[C@@H]2N1C(=O)C1CCCC1,15.1,11.2
C[C@H](CO)N1C[C@H](C)[C@H](CN(C)Cc2ccc(Oc3ccccc3)cc2)Oc2ccc(NC(=O)CCN3CCOCC3)cc2CC1=O,-11.0,-7.6
C[C@H](CO)N1C[C@H](C)[C@H](CN(C)Cc2ccc(-c3ccccc3)cc2)Oc2ccc(N(C)C)cc2CC1=O,-21.3,-9.3
C[C@H]1CN([C@@H](C)CO)S(=O)(=O)c2ccc(C#CC3CC3)cc2O[C@H]1CN(C)CC1CCOCC1,-13.7,-13.7
CCC(=O)N1CC(=O)N2[C@@H](CO)[C@H](c3ccc(C#Cc4cccc(OC)c4)cc3)[C@@H]2C1,-0.7,-6.7
C[C@@H]1CN([C@@H](C)CO)S(=O)(=O)c2ccc(C#CCC3CCCC3)cc2O[C@@H]1CN(C)C(=O)c1cnccn1,?,·
C[C@@H](NC(=O)C[C@@H]1CC[C@H]2[C@@H](COC[C@@H](O)CN2C(=O)Nc2cccc(F)c2)O1)c1ccccc1,-2.0,-2.0
COc1ccc2c3c([nH]c2c1)[C@@H](CO)N(C(=O)c1ccncc1)CC31CCN(Cc2cccnc2)CC1,34.0,13.3
C[C@@H]1CN([C@H](C)CO)C(=O)c2cc(NC(=O)NC3CCCCC3)ccc2O[C@@H]1CN(C)CC1CCCCC1,-19.3,-6.8
C[C@H](CO)N1C[C@H](C)[C@@H](CN(C)Cc2ccc(F)cc2)Oc2cc(C#Cc3ccccn3)ccc2S1(=O)=O,?,·
COCC(=O)N(C)C[C@@H]1Oc2cc(C#C[C@@H](C)O)ccc2S(=O)(=O)N([C@@H](C)CO)C[C@H]1C,5.6,-3.0
C[C@@H]1CN([C@@H](C)CO)C(=O)Cc2cc(NC(=O)Cc3ccccc3)ccc2O[C@@H]1CN(C)Cc1ccc(-c2ccccc2)cc1,?,·
Cc1noc(C)c1S(=O)(=O)Nc1ccc2c(c1)C(=O)N([C@H](C)CO)C[C@H](C)[C@H](CN(C)C(=O)NC(C)C)OCCCC[C@H](C)O2,-0.4,-3.3
COc1ccccc1NC(=O)N1[C@H](C#N)[C@@H](c2ccccc2)[C@@H]1CO,13.4,9.7
C[C@H](NC(=O)C[C@H]1C[C@H]2c3cc(NC(=O)Cc4ccncc4)ccc3O[C@H]2[C@@H](CO)O1)c1ccccc1,-1.7,-0.9
CO[C@@H]1CN(C)C(=O)c2ccc(NC(=O)Cc3ccccc3)cc2OC[C@H](C)N(C)C[C@H]1C,11.0,2.6
Cc1noc(C)c1NC(=O)Nc1ccc2c(c1)C(=O)N([C@H](C)CO)C[C@@H](C)[C@@H](CN(C)C(=O)Nc1ccc3c(c1)OCO3)O2,-0.6,-6.8
SMILES,Vaccinia inh,Vaccinia inh Venus
C[C@@H]1CN([C@@H](C)CO)C(=O)Cc2cc(NC(=O)Cc3cn(C)c4ccccc34)ccc2O[C@@H]1CN(C)CC1CC1,-9.4,-2.2
CO[C@H](CN(C)C(=O)Nc1ccc(C(F)(F)F)cc1)[C@H](C)CN(Cc1ccccc1Cl)[C@@H](C)CO,?,·
C[C@@H]1CCCCO[C@H](CN(C)C(=O)Nc2ccc(C(F)(F)F)cc2)[C@@H](C)CN([C@@H](C)CO)C(=O)c2cc(NS(=O)(=O)c3cn(C)cn3)ccc2O1,-25.3,-23.1
C[C@@H]1CN([C@H](C)CO)C(=O)c2cc(NC(=O)C3CCCCC3)ccc2O[C@@H](C)CCCCO[C@H]1CN(C)S(C)(=O)=O,1.2,1.6
O=C(c1cccc(F)c1)N1CC(=O)N2[C@@H](CO)[C@@H](c3ccc(-c4ccccc4F)cc3)[C@@H]2C1,5.3,-20.6
CC(C)NC(=O)N[C@H]1CC[C@H](CC(=O)O)O[C@H]1CO,24.7,29.0
COC(=O)[C@@H]1[C@@H](CO)[C@@H]2Cn3c(ccc(-c4ccccc4)c3=O)[C@@H]2N1Cc1ccccn1,-7.9,2.2
CCS(=O)(=O)N1Cc2cc(C(=O)N(C)C)nc(-c3cccc(-c4ccc(C#N)cc4)c3)c2[C@H]1CCO,-2.5,-0.3
O=C(Cc1cccnc1)N1[C@H](CO)[C@H](c2ccccc2)[C@H]1CNCC1CCC1,0.0,-7.4
CO[C@@H]1CN(C)C(=O)c2ccc(NC(=O)CC(F)(F)F)cc2OC[C@@H](C)N(C(=O)c2ccccc2F)C[C@@H]1C,2.0,12.1
CCC(=O)N(C)C[C@H]1Oc2cc(-c3cccc(C#N)c3)ccc2S(=O)(=O)N([C@@H](C)CO)C[C@H]1C,18.0,6.3
COc1ccc(S(=O)(=O)Nc2ccc3c(c2)C(=O)N([C@H](C)CO)C[C@@H](C)[C@@H](CN(C)S(=O)(=O)c2ccccc2)OCCCC[C@@H](C)O3)cc1,-24.9,-15.9
C[C@H]1CN([C@@H](C)CO)C(=O)c2cccc(NC(=O)Nc3ccc(C(F)(F)F)cc3)c2O[C@@H]1CN(C)CC1CCCCC1,-25.0,-14.2
COc1cccc(S(=O)(=O)N2C[C@H](O)COC[C@@H]3O[C@@H](CC(=O)NCCCN4CCOCC4)CC[C@H]32)c1,9.4,11.1
CC(C)CC#Cc1cnc2c(c1)C(=O)N([C@H](C)CO)C[C@H](C)[C@H](CN(C)S(=O)(=O)c1cn(C)cn1)O2,-18.4,3.0
CCCNC(=O)N1CC2(C1)[C@H](c1ccccc1)[C@H](CO)N2C(=O)c1ccncc1,-1.9,14.0
CCC(=O)N1CC2(C1)[C@H](c1ccccc1)[C@H](CO)N2C(=O)NC(C)C,7.0,19.0
C[C@@H]1CN([C@H](C)CO)C(=O)c2cc(NS(=O)(=O)c3cn(C)cn3)ccc2O[C@@H]1CN(C)S(=O)(=O)c1ccc(Cl)cc1,3.7,3.2
CCCNC(=O)N(C)C[C@@H]1Oc2cc(C#CCN(C)C)ccc2S(=O)(=O)N([C@@H](C)CO)C[C@H]1C,6.2,-1.3
O=C(Nc1ccc2c(c1)[C@@H]1C[C@H](CC(=O)N3CCOCC3)O[C@H](CO)[C@@H]1O2)C1CCOCC1,6.1,3.0
COc1ccccc1-c1ccc([C@H]2[C@@H](CO)N3CCCCN(C(=O)NC4CCCC4)C[C@@H]23)cc1,?,·
C[C@@H]1CCCCO[C@H](CN(C)S(=O)(=O)c2cccs2)[C@@H](C)CN([C@H](C)CO)C(=O)c2cc(NC(=O)CCCCCC(=O)Nc3ccccc3N)ccc2O1,17.6,17.7
C[C@H]1CCCCO[C@@H](CN(C)Cc2ccccc2)[C@@H](C)CN([C@@H](C)CO)C(=O)c2cc(NS(=O)(=O)c3cn(C)cn3)ccc2O1,12.3,5.8
C[C@@H]1CN([C@@H](C)CO)C(=O)c2cc(N(C)C)ccc2O[C@H]1CN(C)Cc1ccc(Cl)c(Cl)c1,-20.5,-12.9
CO[C@@H]1CN(C)C(=O)c2cc(NC(=O)c3cc(C)on3)ccc2OC[C@@H](C)N(C(=O)C2CC2)C[C@H]1C,16.6,-3.9

# Compound profiles, as listed above. Order of screens: Vaccinia inh, Vaccinia inh Venus
# `CCCNC(=O)N(C)C[C@@H]1Oc2cc(C#CCN(C)C)ccc2S(=O)(=O)N([C@@H](C)CO)C[C@H]1C` is entered as 6.2, -1.3
# `O=C(Cc1cccnc1)N1[C@H](CO)[C@H](c2ccccc2)[C@H]1CNCC1CCC1` is entered as 0.0, -7.4
# `COc1ccc(S(=O)(=O)Nc2ccc3c(c2)C(=O)N([C@H](C)CO)C[C@@H](C)[C@@H](CN(C)S(=O)(=O)c2ccccc2)OCCCC[C@@H](C)O3)cc1` is entered as -24.9, -15.9
# `C[C@H]1CN([C@@H](C)CO)C(=O)c2cccc(NC(=O)Nc3ccc(C(F)(F)F)cc3)c2O[C@@H]1CN(C)CC1CCCCC1` is entered as -25.0, -14.2
# `C[C@@H]1CCCCO[C@H](CN(C)C(=O)Nc2ccc(C(F)(F)F)cc2)[C@@H](C)CN([C@@H](C)CO)C(=O)c2cc(NS(=O)(=O)c3cn(C)cn3)ccc2O1` is entered as -25.3, -23.1

# Part of the list above, set out differently:
Structure	Vaccinia inh	Vaccinia inh Venus
COc1ccc(S(=O)(=O)Nc2ccc3c(c2)C(=O)N([C@H](C)CO)C[C@@H](C)[C@@H](CN(C)S(=O)(=O)c2ccccc2)OCCCC[C@@H](C)O3)cc1	-24.9	-15.9
C[C@H]1CN([C@@H](C)CO)C(=O)c2cccc(NC(=O)Nc3ccc(C(F)(F)F)cc3)c2O[C@@H]1CN(C)CC1CCCCC1	-25.0	-14.2

# Next structures follow.
SMILES,Vaccinia inh,Vaccinia inh Venus
C[C@H]1CCCCO[C@@H](CN(C)S(=O)(=O)c2ccc(F)cc2)[C@@H](C)CN([C@@H](C)CO)C(=O)c2cc(NC(=O)CCC(F)(F)F)ccc2O1,?,·
C[C@H](CO)N1C[C@H](C)[C@@H](CN(C)C(=O)Nc2ccc3c(c2)OCO3)Oc2c(cccc2N(C)C)C1=O,7.6,9.0
C[C@H]1CN([C@@H](C)CO)S(=O)(=O)c2ccc(C#Cc3cccc(F)c3)cc2O[C@H]1CN(C)C(=O)NC1CCCCC1,?,·
C[C@H](CO)N1C[C@H](C)[C@@H](CN(C)C(=O)Nc2ccc3c(c2)OCO3)Oc2ncc(-c3ccccc3)cc2C1=O,-11.3,-12.0
CC(C)CC#Cc1ccc([C@@H]2[C@@H](CO)N3C(=O)CN(C(=O)CN4CCOCC4)C[C@@H]23)cc1,27.0,8.4
Cc1noc(C)c1S(=O)(=O)Nc1ccc2c(c1)C(=O)N([C@H](C)CO)C[C@@H](C)[C@@H](CN(C)S(=O)(=O)c1ccccc1)OCCCC[C@@H](C)O2,?,·
COCC(=O)Nc1ccc2c(c1)OC[C@H](C)N(Cc1cc(F)ccc1F)C[C@H](C)[C@@H](OC)CN(C)C2=O,0.1,3.8
C[C@H]1CN([C@@H](C)CO)S(=O)(=O)c2ccc(C#CCN(C)C)cc2O[C@@H]1CN(C)Cc1cccnc1,19.2,3.2
C[C@@H]1CN([C@H](C)CO)C(=O)c2cc(/C=C/c3ccccc3)cnc2O[C@H]1CN(C)C(=O)c1ccncc1,3.6,-1.8
COc1cc(/C=C(\C#N)C(=O)Nc2nnc(C(F)(F)F)s2)ccc1OCc1ccc(C(F)(F)F)cc1C(F)(F)F,2.8,2.5
O=C(Nc1ccc(C(F)(F)F)cc1)N[C@H]1CC[C@H](CCNC(=O)c2ccccc2F)O[C@@H]1CO,-21.8,-10.0
O=C(Cc1ccncc1)N1CC[C@@H]2[C@@H](CO)Nc3ccc(-c4cccc(F)c4)cc3[C@@H]21,0.0,-1.3
CO[C@H]1CN(C)C(=O)c2ccc(NS(C)(=O)=O)cc2OC[C@@H](C)N(C(=O)C2CCOCC2)C[C@H]1C,2.2,4.1
CCC(=O)N1CC[C@@H]2[C@@H](CO)Nc3ccc(-c4ccc(C(=O)N(C)C)cc4)cc3[C@@H]21,2.4,0.3
CCNC(=O)[C@@H]1[C@@H](CO)[C@@H]2Cn3c(ccc(C4=CCCCC4)c3=O)[C@H]1N2C(=O)Cc1ccccn1,9.2,-4.8
CC(=O)NC[C@@H]1[C@@H](c2ccc(C3=CCCC3)cc2)[C@@H](CO)N1C(=O)C1CCC1,11.7,4.6
COc1cccc(NC(=O)N(C)C[C@H]2Oc3ncc(Br)cc3C(=O)N([C@H](C)CO)C[C@H]2C)c1,11.6,15.4
C[C@H]1CN([C@@H](C)CO)C(=O)c2c(c3ccccc3n2C)-c2ccccc2CO[C@H]1CN(C)Cc1ccc2c(c1)OCCN2C,?,·
O=C1O[C@@H](c2ccccc2)[C@@H](c2ccccc2)N2[C@@H](c3ccc(OCCO)cc3)[C@]3(C(=O)Nc4ccc(C#CC5=CCCCC5)cc43)[C@@H](C(=O)N3CCN(c4ncccn4)CC3)[C@H]12,-3.5,-1.1
Cc1ccc(S(=O)(=O)Nc2ccc3c(c2)CC(=O)N([C@H](C)CO)C[C@H](C)[C@H](CN(C)S(=O)(=O)c2ccc(C)cc2)O3)cc1,-12.1,0.8
CN(C)C(=O)c1ccc(-c2ccc([C@H]3[C@@H](C#N)N(C(=O)Cc4ccccn4)[C@@H]3CO)cc2)cc1,19.2,6.2
C[C@@H]1CN([C@H](C)CO)C(=O)CCCn2nncc2CO[C@@H]1CN(C)C(=O)OCc1ccccc1,11.9&2.4,22.9&3.2
COc1ccc(NC(=O)N(C)C[C@H]2OCc3cnnn3CCCC(=O)N([C@@H](C)CO)C[C@H]2C)cc1,3.0,7.1
CCS(=O)(=O)N1CCC2(CC1)CN(Cc1ccc3c(c1)OCO3)[C@@H](CO)c1c2c2ccc(OC)cc2n1C,-2.7,-14.2
C[C@@H]1CN([C@H](C)CO)C(=O)Cc2cc(NC(=O)Cc3ccccc3)ccc2O[C@H]1CN(C)Cc1ccc(Cl)c(Cl)c1,-27.0,-23.8
